# Gli-Sufu block – Gli-Sufu pathway antagonism. Sufu-KO-LIGHT fibroblasts, Gli luciferase reporter luminescence. inhibition, % at 5 µM. 340,000 tested, 0.74% active. AID 588413;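 active means inhibition above about 55%, limit read from the data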;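 further: 0% = DMSO-treated cells and 100% = wells with medium but no cells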
# CXCR6 block – CXCR6 (human) receptor inhibition | AID 602244 | 360,000 tested, 0.36% active | O00574 | inhibition, % at 20 µM | CHO-K1 PathHunter CXCR6 beta-arrestin, luminescence; in the data active means inhibition above about 34%, passing the limit was not always enough;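 further: antagonist mode with CXCL16 agonist at 10 nM final; 0% = 10 nM CXCL16 with DMSO and 100% = unstimulated wells without agonist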
# Target sequence (O00574 whole entry, looked up): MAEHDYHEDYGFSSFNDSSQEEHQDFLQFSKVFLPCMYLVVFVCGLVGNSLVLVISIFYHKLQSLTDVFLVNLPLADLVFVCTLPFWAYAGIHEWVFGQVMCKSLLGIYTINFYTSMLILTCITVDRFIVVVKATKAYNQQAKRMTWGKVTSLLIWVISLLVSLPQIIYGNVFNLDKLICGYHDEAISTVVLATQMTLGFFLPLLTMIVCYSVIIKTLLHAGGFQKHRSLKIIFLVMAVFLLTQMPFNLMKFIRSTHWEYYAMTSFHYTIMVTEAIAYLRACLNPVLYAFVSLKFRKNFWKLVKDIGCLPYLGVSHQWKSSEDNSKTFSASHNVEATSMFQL
# APJ antag – blocks the human apelin receptor APJ. P35414. CHO-K1 APJ beta-arrestin complementation, luminescence. inhibition, % at 20 µM. 330,000 tested, 0.32% active. AID 2521;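 active means inhibition above about 40% at 20 µM, limit read from the data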;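 further: cells challenged with 10 nM apelin-13 agonist together with compound; plate controls were apelin-13 plus DMSO wells for no effect and DMSO wells lacking apelin-13 for full effect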
# CCR6 antag – blocks CCL20-driven beta-arrestin recruitment at human CCR6; P51684; CHO-K1 CCR6 PathHunter beta-arrestin, luminescence, CCL20-stimulated; inhibition, % at 20 µM; 340,000 tested, 0.49% active;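 active means compounds whose inhibition of the agonist-driven luminescence signal at 20 µM reaches about 50%, limit read from the data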;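 further: cells stimulated with CCL20 at 14 nM final; plate controls were DMSO with CCL20 for no effect and DMSO without agonist for full effect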
# EBI2 block – blocks human EBI2 receptor beta-arrestin signaling. inhibition, % at 5 µM. 360,000 tested, 0.81% active. P32249. EBI2 beta-arrestin recruitment, luminescence, 7a,25-OHC stimulated; in the data active means inhibition above about 38%;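 further: enzyme fragment complementation signal reports receptor beta-arrestin coupling in cells; 0% = agonist plus DMSO wells and 100% = wells without agonist; some results beyond the cut were filed as inactive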
# Target sequence (P32249 whole entry, looked up, the tested form may be a part): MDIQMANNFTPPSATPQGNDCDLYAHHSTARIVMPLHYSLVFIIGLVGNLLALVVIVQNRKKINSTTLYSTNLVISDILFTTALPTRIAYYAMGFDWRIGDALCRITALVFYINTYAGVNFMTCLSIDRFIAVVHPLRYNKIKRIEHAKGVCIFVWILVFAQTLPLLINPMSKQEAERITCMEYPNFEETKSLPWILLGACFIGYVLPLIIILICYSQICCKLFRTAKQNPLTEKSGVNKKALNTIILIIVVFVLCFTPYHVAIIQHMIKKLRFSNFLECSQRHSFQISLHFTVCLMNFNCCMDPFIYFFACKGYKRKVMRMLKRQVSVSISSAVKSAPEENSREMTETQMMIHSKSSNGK
# UBC13 polyUb – blocks human UBC13 polyubiquitin chain formation | TR-FRET | 330,000 tested, 0.47% active | inhibition, % at 20 µM; in the data active means inhibition above about 45%, passing the limit was not always enough
# Target sequence (P61088 whole entry, looked up): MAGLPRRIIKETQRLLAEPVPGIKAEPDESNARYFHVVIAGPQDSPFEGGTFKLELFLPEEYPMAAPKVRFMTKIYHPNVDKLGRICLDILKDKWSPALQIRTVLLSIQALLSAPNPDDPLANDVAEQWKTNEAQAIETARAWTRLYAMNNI
# An asterisk follows results filed as active; . = not tested or not shown; & = joins results of further samples.
SMILES,Gli-Sufu block,CXCR6 block,APJ antag,CCR6 antag,EBI2 block,UBC13 polyUb
CN(C)CCC(c1ccc(Br)cc1)c1ccccn1 (configuration not stated),-1.3&7.6&4.7,5.1&5.9&1.6,10.0,16.2&6.4&3.6,0.1&5.1&3.8,-2.7
CCNc1cc(O)ccc1C,2.3,-2.8,-39.0,-1.6,-2.6,-16.9
CC(N=C(NC#N)Nc1ccncc1)C(C)(C)C (configuration not stated),-5.7&13.2,1.8&-1.6,13.0&7.4,4.0&-0.6,-3.7&-1.9,0.9&17.6
O=C(O)CC(O)(CC(=O)O)C(=O)O,5.8,0.5,-57.4,5.6,-0.4,-1.1
OCC(O)[C@@H](O[C@H]1O[C@H](CO)[C@@H](O)[C@H](O)[C@H]1O)[C@H](O)[C@@H](O)CO (some centres not stated),2.5,-5.6,-2.3,-1.5,-5.8,9.5
NC(=O)C1CCN(C(=O)Nc2ccccc2)CC1,4.8,-0.3,-0.3,4.6,-0.4,5.5
Nc1ncn([C@H]2C[C@H](O)[C@@H](CO)O2)c(=O)n1,4.8,-11.8,15.6,-1.4,-1.8,-9.0
O=C(OCc1ccccc1)N1CCc2ccccc21,-144.5,-1.2,-22.3,15.4,13.5,-0.1
Nc1cccc([N+](=O)[O-])c1,-20.4,8.1,8.7,6.3,-16.9,-3.2
CC1=NS(=O)(=O)c2cc(Cl)ccc2N1,-6.0,1.9,9.1,-6.8,1.7,2.5
CC(C)(Oc1ccc(Cl)cc1)C(=O)O,5.9,4.4,-10.0,7.7,2.4,4.9
O=C1OC(CN2CCOCC2)CN1N=Cc1ccc([N+](=O)[O-])o1 (configuration not stated),-2.8,-15.7,2.2,8.4,-5.8,-2.1
CC(C)NCC(O)c1cc(O)cc(O)c1 (configuration not stated),13.6,-2.2,9.0,4.8,-2.1,-5.6
COc1ccc(-c2csc(Nc3ccc(O)cc3)n2)cc1,4.1,-5.9,-74.1,-10.3,15.7,5.6
CCCCc1nc(Cl)c(CO)n1Cc1ccc(-c2ccccc2-c2nnn[nH]2)cc1,-6.1,5.1,18.1,7.0,3.0,-17.5
CN(C)c1ccc(/C=N/NC(=O)c2ccccc2)cc1,-95.2,-13.5,9.7,14.4,7.2,-7.1
O=[N+]([O-])c1ccccc1Nc1ccccc1,5.4,13.3,23.6,21.5,5.2,-21.0
CN(C)C(=O)Oc1ccc[n+](C)c1,-10.0,-3.7,-2.2,0.6,3.3,12.5
NC(=O)c1cccc([N+](=O)[O-])c1,15.5,6.2,-8.4,7.1,-0.7,-0.1
c1ccc(-c2cnc(-c3ccccc3)nn2)cc1,-114.1,-6.0,6.0,5.8,1.9,-21.0
Fc1ccc(C(c2ccc(F)cc2)N2CCN(C/C=C/c3ccccc3)CC2)cc1,-0.9,9.3,19.1,21.8,29.8,25.5
Fc1ccccc1/C=N/Nc1ncnc2ccccc12,-78.4,-1.7,-14.7,6.8,-6.1,-0.8
Cc1onc(-c2c(Cl)cccc2Cl)c1C(=O)NC1C(=O)N2C1SC(C)(C)C2C(=O)O (configuration not stated),-0.3,-4.0,7.8,9.5,10.1,1.5
COc1ccc2cc(CCC(C)=O)ccc2c1,-68.1,-0.4,-3.5,7.6,1.5,-18.6
COc1cc(C(=O)OCCCN2CCCN(CCCOC(=O)c3cc(OC)c(OC)c(OC)c3)CC2)cc(OC)c1OC,23.0,3.3,8.7,21.4,0.7,22.5
CC(C)N=C(N)N=C(N)Nc1ccc(Cl)cc1,70.1*,-2.0,14.1,-5.8,-5.6,8.3
CC(=O)Oc1c(C)c(C)c2c(c1C)CC[C@@](C)(CCC[C@H](C)CCC[C@H](C)CCCC(C)C)O2,-3.4,-3.2,1.0,-4.6,2.5,2.8
C=C(CC)C(=O)c1ccc(OCC(=O)O)c(Cl)c1Cl,-4.4,4.2,10.0,-6.7,-0.2,4.9
C=C1C[C@]23C[C@@]1(O)CC[C@H]2[C@@]12C=C[C@H](O)[C@@](C)(C(=O)O1)[C@H]2[C@@H]3C(=O)O,-5.2&-4.2,6.7&0.7,9.0&8.8,-2.3&4.1,-9.3&-3.7,5.8&3.8
CCN1CCC[C@H]1CNC(=O)c1c(OC)ccc(Br)c1OC,1.4,2.0,-0.9,2.5,-2.3,4.0
CC(C)C(=O)Nc1ccc([N+](=O)[O-])c(C(F)(F)F)c1,5.9,1.4,18.1,11.0,-9.6,4.1
CCCCCCCC(=O)OCC(COC(=O)CCCCCCC)OC(=O)CCCCCCC,-11.4,4.9,-0.5,2.1,3.6,8.9
COc1cc(C2c3cc4c(cc3C(OC3OC5COC(c6cccs6)OC5C(O)C3O)C3COC(=O)C23)OCO4)cc(OC)c1O (configuration not stated),81.7*,-7.4,-6.2,1.7,6.5,6.1
CN(C)CCc1c[nH]c2ccc(C[C@H]3COC(=O)N3)cc12,.,.,24.1,.,.,10.7
COC(=O)c1ccc(C)cc1,-0.5,0.5,-0.1,-9.0,0.0,3.1
O=C(CCN1CCN2CCCC2C1)N1c2ccccc2Sc2ccc(Cl)cc21 (configuration not stated),4.7,0.1,-3.5,7.6,-0.8,14.5
CC(=O)OC[C@H]1O[C@@H](n2ncc(=O)[nH]c2=O)[C@H](OC(C)=O)[C@@H]1OC(C)=O,-16.0,-3.7,16.5,-0.6,-0.3,0.5
CN(C)CC[C@@H](c1ccc(Br)cc1)c1ccccn1,11.3,4.2,19.7,4.9,3.2,-22.9
O=C(Nc1ccc(F)cc1)Nc1ccc2c(c1)OCO2,-72.9,6.4,2.7,-2.9,-13.2,-0.4
C=C1/C(=C\C=C2/CCC[C@]3(C)[C@@H]([C@H](C)CCCC(C)(C)O)CC[C@@H]23)C[C@@H](O)C[C@@H]1O,.,.,-6.9,.,.,-4.7
CCCCN(CCO)CCCC,2.0,0.0,-8.1,2.8,3.8,-0.4
CC(C)(C)NC(=O)[C@@H]1CN(Cc2cccnc2)CCN1C[C@@H](O)C[C@@H](Cc1ccccc1)C(=O)N[C@H]1c2ccccc2C[C@H]1O,1.5,-4.0,-0.8,-1.2,-1.8,-4.2
Oc1c(Cl)cc(Cl)cc1Sc1cc(Cl)cc(Cl)c1O,.,.,1.2,.,.,2.8
CC(=O)C1(O)CCC2C3CC(C)C4=CC(=O)C=CC4(C)C3(F)C(O)CC21C (configuration not stated),16.7,-5.0,.,-9.2,-2.2,.
Nc1ccc(C(=O)O)c(O)c1,0.6&-0.1&-0.9,-1.2&1.0&-1.3,-0.1&0.5&-2.2,3.1&8.0&-11.9,-6.4&-6.0&-6.5,-79.0&-5.8&-0.5
NC(=O)c1ncn([C@@H]2O[C@H](CO)[C@@H](O)[C@H]2O)n1,11.2,-3.0,15.6,0.6,6.0,15.8
Nc1nc(N)nc(-c2cc(Cl)ccc2Cl)n1,-3.2,4.4,5.9,3.3,-5.2,-8.9
CC1CC2C3CCC4=CC(=O)C=CC4(C)[C@@]3(Cl)C(O)CC2(C)C1(O)C(=O)CO (some centres not stated),9.7,-6.9,6.0,6.5,-5.3,-3.7

# An excerpt from above in order of the EBI2 block value, high to low.
mol | EBI2 block
CCCCN(CCO)CCCC | 3.8
CC(=O)C1(O)CCC2C3CC(C)C4=CC(=O)C=CC4(C)C3(F)C(O)CC21C (configuration not stated) | -2.2
CC1CC2C3CCC4=CC(=O)C=CC4(C)[C@@]3(Cl)C(O)CC2(C)C1(O)C(=O)CO (some centres not stated) | -5.3

# Part of the list above in order of SMILES length, descending.
SMILES,Gli-Sufu block,CXCR6 block,APJ antag,CCR6 antag,EBI2 block,UBC13 polyUb
CC(C)(C)NC(=O)[C@@H]1CN(Cc2cccnc2)CCN1C[C@@H](O)C[C@@H](Cc1ccccc1)C(=O)N[C@H]1c2ccccc2C[C@H]1O,1.5,-4.0,-0.8,-1.2,-1.8,-4.2
C=C1/C(=C\C=C2/CCC[C@]3(C)[C@@H]([C@H](C)CCCC(C)(C)O)CC[C@@H]23)C[C@@H](O)C[C@@H]1O,.,.,-6.9,.,.,-4.7
O=C(Nc1ccc(F)cc1)Nc1ccc2c(c1)OCO2,-72.9,6.4,2.7,-2.9,-13.2,-0.4

# Additional structures
SMILES,Gli-Sufu block,CXCR6 block,APJ antag,CCR6 antag,EBI2 block,UBC13 polyUb
NCC(=O)CCC(=O)O,-5.2,3.8,-5.6,1.5,-5.4,13.9
CCCCNc1c(C(=O)OCC)c(C)nc2c1cnn2CC,-5.5,-0.9,12.0,7.1,7.3,22.2
COc1cc(-c2ccc(=O)[nH]n2)ccc1OC(F)F,-2.6,-4.3,8.1,-2.7,-5.4,-9.3
COc1cc(NS(C)(=O)=O)ccc1Nc1c2ccccc2nc2ccccc12,73.8*,0.6,7.0,36.0,-10.8,-176.4
NC(N)=S,-0.7,-1.6,-7.5,20.4,3.6,6.3
COc1cccc2c1C(=O)c1c(O)c3c(c(O)c1C2=O)C[C@@](O)(C(=O)CO)C[C@@H]3OC1CC(N)C(O)C(C)O1 (some centres not stated),90.8*,24.0,.,22.2,-24.3,.
CCc1ccc(C(c2ccc(CC)cc2)C(Cl)Cl)cc1,7.3,-1.8,24.1,40.2,12.8,-1.6
N[C@@H]1CONC1=O,.,.,10.2,.,.,6.1
NC(=NCCCCCCN=C(N)/N=C(\N)Nc1ccc(Cl)cc1)/N=C(\N)Nc1ccc(Cl)cc1,12.0&-26.8&-7.4,0.1&0.5&0.7,28.6,-31.1&-13.3&7.2,11.4&-3.2&-2.5,110.8*
CN1CCC(OC(c2ccccc2)c2ccccc2)CC1,4.0,8.0,11.1,5.1,-2.7,15.5
OC1CCCCC1,-17.7,-1.0,-7.1,-3.0,0.3,4.0
COc1cccc2c1C(=O)c1c(O)c3c(c(O)c1C2=O)C[C@@](O)(C(=O)CO)C[C@@H]3O[C@H]1C[C@H](N)[C@H](O)[C@H](C)O1,52.8,16.2,6.9,21.0,-2.2,-267.8
O=C1[C@H]2CCCC[C@H]2C(=O)N1CCCCN1CCN(c2nsc3ccccc23)CC1,1.1,-5.4,10.8,10.7,2.2,3.9
CCC1(c2ccccc2)NC(=O)N(C)C1=O (configuration not stated),-9.2,-2.4,10.5,20.9,-2.9,-6.6
Cc1cn(C2C=CC(CO)O2)c(=O)[nH]c1=O (configuration not stated),-2.5,-0.9,5.0,1.3,-1.5,-1.5
O=C1CCc2ccc(OCCCCN3CCN(c4cccc(Cl)c4Cl)CC3)cc2N1,2.1,-3.3,2.2,2.1,1.9,35.4
Cc1cc(C)n2nc(-c3cccc(Br)c3)cc2n1,-59.2,-2.9,4.3,-3.5,10.4,18.4
Cc1cccc(Nc2ccccc2C(=O)O)c1C,5.3,9.0,0.4,-7.5,0.7,-4.4
C1CCC2=NCCCN2CC1,2.9,2.5,21.3,8.2,-4.5,4.6
Cc1ccc(N)cc1O,-16.2,-15.0,-33.2,-5.9,-8.6,-1.1
CN(C)N=Nc1nc[nH]c1C(N)=O,16.5,1.1,7.4,-12.1,10.8,-8.7
CC(C)NCC(O)c1ccc(O)c(O)c1 (configuration not stated),-2.0,-7.0,-1.2,7.7,-2.3,20.9
c1ccc2c(c1)CCCC2C1=NCCN1 (configuration not stated),-4.1,-2.4,-6.6,-4.2,-6.8,-1.6
CC1(C)C(C=C(Cl)Cl)C1C(=O)OCc1cccc(Oc2ccccc2)c1 (configuration not stated),32.1,7.7,23.5,25.6,12.9,-2.4

# Quoted at random: 4 records from the list.
SMILES,Gli-Sufu block,CXCR6 block,APJ antag,CCR6 antag,EBI2 block,UBC13 polyUb
O=C1CCc2ccc(OCCCCN3CCN(c4cccc(Cl)c4Cl)CC3)cc2N1,2.1,-3.3,2.2,2.1,1.9,35.4
CCC1(c2ccccc2)NC(=O)N(C)C1=O (configuration not stated),-9.2,-2.4,10.5,20.9,-2.9,-6.6
Cc1cn(C2C=CC(CO)O2)c(=O)[nH]c1=O (configuration not stated),-2.5,-0.9,5.0,1.3,-1.5,-1.5
C1CCC2=NCCCN2CC1,2.9,2.5,21.3,8.2,-4.5,4.6

# Continued:
SMILES,Gli-Sufu block,CXCR6 block,APJ antag,CCR6 antag,EBI2 block,UBC13 polyUb
CC(C)(C)NC[C@H](O)COc1nsnc1N1CCOCC1,0.0&-16.1&0.2,1.0&0.7&0.6,4.8,-0.3&-11.2&1.0,-0.2&-4.9&-12.2,-4.4
O=C(N/N=C/c1ccc2c(c1)OCO2)c1ccc(Br)o1,-90.5,-1.1,-1.2,8.9,0.1,0.0
N#Cc1ccc(CNC(=O)N2CCOCC2)cc1,-4.0,-5.9,-5.5,0.2,-3.4,-12.1
CC(=O)O[C@H]1C(=O)[C@]2(C)[C@H]([C@H](OC(=O)c3ccccc3)[C@]3(O)C[C@H](OC(=O)[C@H](O)[C@@H](NC(=O)c4ccccc4)c4ccccc4)C(C)=C1C3(C)C)[C@]1(OC(C)=O)CO[C@@H]1C[C@@H]2O,42.9,-3.7,-16.3,2.5,3.3,-1.3
C=CCOC(Cn1ccnc1)c1ccc(Cl)cc1Cl (configuration not stated),3.3,-8.4,-45.1,16.4,-3.5,5.5
N[C@H]1CONC1=O,-5.3,.,-15.1,20.8,.,-0.7

# Screening results (PubChem)

# This is a subset; count on the stated rates, not on these rows.
